# Screens: PubChem BioAssay, Southern Research Institute
# Mtb H37Rv: Mycobacterium tuberculosis H37Rv growth inhibition, cell based, confirmatory dose response (AID 1949). one-dose inhibition, % at 10 µg/mL; IC50 in µg/mL for titrated hits. 1.6% of 100,000 active. most inactive calls were filed without a number and no value below 0 was filed;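 active means confirmed in a dose series; inconclusive means about 50% or more but not retested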;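 further: bacteria grown 7 days with compound before Alamar blue readout; 0% = untreated bacteria and 100% = reference antibiotic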
# The depositor's hits bear a star; i = inactive; ? = inconclusive.
SMILES,Mtb H37Rv
O=C(CCC(=O)Nc1cc(Cl)ccc1Cl)Nc1cc(Cl)ccc1Cl,i
O=C(CN(C1CCCCC1)S(=O)(=O)c1ccc(Br)cc1)NCCc1ccccc1,0.4%
COc1ccc(N(CC(=O)N2CCC(C(N)=O)CC2)S(=O)(=O)c2ccc(C)cc2)cc1Cl,i
O=C(COc1ccccc1)Nc1ccc2c(c1)C(=O)N(CC1CCCO1)C2=O (centres undefined),i
COc1ccc(-c2cc(C(F)(F)F)c(C#N)c(SCCC(=O)N3CCCC3)n2)cc1OC,i
C/C=C/c1ccc(OCCOCCNCc2ccccc2)c(OC)c1,1.6%
C=CCc1cc(OC)c(OC)cc1[N+](=O)[O-],i
Cn1c(Oc2cc(Cl)ccc2Cl)nc2c1c(=O)n(Cc1ccc(Cl)cc1)c(=O)n2C,i
CCN(CC)CCNc1nc2ccccc2n1C,i
CCOc1ccccc1NC(=O)c1c(C)c(-c2ccc(C)cc2)nc2ccccc12,2.4%
N/C(=N\OC(=O)C1CCCCC1)c1ccccn1,0.4%
O=C(NC1CCCCCC1)NC1CCCCC1,i
O=[N+]([O-])c1ccccc1SNc1ccc2c(c1)OCO2,2.1%
COc1ccc(C(=O)Nc2ccc(N3CCC(C)CC3)cc2)cc1OC,4.5%
COc1ccc(Cl)cc1NC(=S)Nc1ccccc1SC,i
CCc1c(C)sc(NC(=S)Nc2ccn(C34CC5CC(CC(C5)C3)C4)n2)c1C(=O)OC,i
C=CCNCC(=O)Nc1sc2c(c1C(=O)Nc1ccc(OC)cc1OC)CCC2,i
O=C(NC1CCCC1)c1ccc2ccccc2n1,0.4%
COc1ccccc1N(CC(=O)Nc1ccccc1C(N)=O)S(=O)(=O)c1ccccc1,0.4%
COc1ccc(C(=O)C(C)Oc2cccc(NC(=O)c3ccc([N+](=O)[O-])cc3)c2)cc1 (centres undefined),3.2%

# In another format: entries from further up.
molecule | Mtb H37Rv
C=CCNCC(=O)Nc1sc2c(c1C(=O)Nc1ccc(OC)cc1OC)CCC2 | i
O=C(NC1CCCC1)c1ccc2ccccc2n1 | 0.4%
COc1ccccc1N(CC(=O)Nc1ccccc1C(N)=O)S(=O)(=O)c1ccccc1 | 0.4%
COc1ccc(C(=O)C(C)Oc2cccc(NC(=O)c3ccc([N+](=O)[O-])cc3)c2)cc1 (centres undefined) | 3.2%

# Reprinted from the listing, four compounds:
SMILES,Mtb H37Rv
Cn1c(Oc2cc(Cl)ccc2Cl)nc2c1c(=O)n(Cc1ccc(Cl)cc1)c(=O)n2C,i
CCN(CC)CCNc1nc2ccccc2n1C,i
CCOc1ccccc1NC(=O)c1c(C)c(-c2ccc(C)cc2)nc2ccccc12,2.4%
N/C(=N\OC(=O)C1CCCCC1)c1ccccn1,0.4%

# The main list resumes; the two compounds before the break are reprinted first.
SMILES,Mtb H37Rv
COc1ccccc1N(CC(=O)Nc1ccccc1C(N)=O)S(=O)(=O)c1ccccc1,0.4%
COc1ccc(C(=O)C(C)Oc2cccc(NC(=O)c3ccc([N+](=O)[O-])cc3)c2)cc1 (centres undefined),3.2%
COc1cc(C=O)cc(OC)c1OCc1ccccc1Cl,i
Cc1nc2cc(NC(=O)Nc3cccc([N+](=O)[O-])c3)ccc2n1C,i
CCn1c(CNC(=O)c2ccc(C)cc2)nnc1SCC(=O)Nc1cccc(F)c1C,i
CCOC(=O)C(CC(=O)O)c1ccccc1 (centres undefined),i
COC(=O)c1ccc(NC(=O)CN(c2cccc(Cl)c2Cl)S(=O)(=O)c2ccccc2)cc1,i
COc1cccc(NC(=O)CN2CCC(C)CC2)c1,i
CCOc1ccc(S(=O)(=O)Nc2cc(Cl)ccc2Cl)cc1,i
O=S(=O)(Nc1cc(Cl)c(O)c2ccccc12)c1ccc(Br)cc1,0.8%
O=C(CSc1nnc(-c2cc(Br)ccc2O)n1-c1ccccc1)NC1CCCCC1,i
CCOC(=O)c1cc(-c2ccccc2)sc1NC(=O)c1ccc2c(c1)OCO2,i
CC(=O)c1ccc(NC(=O)c2ccc(CNS(=O)(=O)c3cc(C)ccc3C)cc2)cc1,i
O=C(Nc1c(Cl)cccc1Cl)c1ccc2c(c1)OCO2,i
COc1cccc(-c2nn3c(-c4ccccc4Cl)nnc3s2)c1,6.3%
Cc1cc(I)ccc1NC(=O)CN(c1cccc(F)c1)S(C)(=O)=O,7.6%
Cc1nn2c3ccccc3n(CCO)c2nc1=O,i
COC(=O)c1c(O)ccc(Oc2ccccc2)c1C(=O)OC,i
COC(=O)Cc1c(-c2ccccc2)c2cc(C)ccc2[nH]c1=O,i
CCC(=O)N1CCN(c2ccc(Cl)cc2N)CC1,i
COc1ccc(NC(=O)C2CCCO2)cc1Cl (centres undefined),i
Cc1ccc(SCCNC(=O)CN(c2cccc(F)c2)S(C)(=O)=O)cc1,i
O=C(CCc1ccc(S(=O)(=O)NC2CCCCC2)cc1)NCc1ccccn1,i
CC(C)(C)C(=O)N1CCN(c2ccc([N+](=O)[O-])c(NC3CC3)c2)CC1,i
CCOC(=O)c1cc(CN2CCOCC2)c(C)o1,i
COc1ccc(-c2nn(-c3ccccc3)cc2C2NC(=O)NC(C)=C2C(=O)OC(C)C)cc1 (centres undefined),1.6%
C=CCNC(=O)C1CCCN1S(=O)(=O)c1ccccc1 (centres undefined),2.2%
NC(=O)C1CCN(c2nc(-c3ccc(Cl)cc3Cl)cs2)CC1,i
Cc1onc(-c2ccccc2)c1C(=O)Nc1ccc(S(=O)(=O)N2CCCCCC2)cc1,i
Clc1c(OCCCCN2CCOCC2)ccc2ccccc12,1.2%
Cn1c(COc2cccc3cccnc23)nnc1SCC(N)=O,i
Nn1c(SCC(=O)N2CCCc3ccccc32)nnc1C(F)(F)F,i
O=C(c1cc2cc(Cl)cc(Cl)c2oc1=O)N1CCN(Cc2ccccc2)CC1,2.6%
CCOc1cc(CO)c(Br)cc1OCc1cccc2ccccc12,8.2%
CCOc1ccc(NC2=NC(C(=O)Nc3ccccc3)CC(=O)N2)cc1 (centres undefined),i
O=C(c1cccc(C(F)(F)F)c1)N1CCCCCC1,i
CCOC(=O)c1ccccc1NC(=O)CCCOc1cc(C)ccc1C,2.4%
CCCC(CCC(=O)Nc1ccc(Cl)cc1Cl)C(=O)O (centres undefined),i
CS(=O)(=O)N(CC(=O)NC1CCCCC1)c1ccc(F)cc1,0.7%
Cc1ccc2[nH]c(=O)c(NS(=O)(=O)c3ccccc3)c(-c3ccccc3)c2c1,i
O=C(O)Cc1ccc(NC(=S)Nc2ccc(Br)cc2Cl)cc1,i
CCOc1ccc(NC(=O)CCc2ccc(S(=O)(=O)NCC(C)C)cc2)cc1,i
CC(C)c1ccc(S(=O)(=O)NCc2cccnc2)cc1,i
Cc1nc2ccccn2c1/C(O)=C1\C(=O)C(=O)N(CCN(C)C)C1c1ccco1 (centres undefined),i
Cc1nn(Cc2ccc(F)cc2)c(C)c1NC(=O)C1CC(c2c(F)cccc2Cl)=NO1 (centres undefined),i
Cc1nc(-c2ccc(C(=O)Nc3cccc(Cl)c3C)cc2)cs1,i
Cc1ccc(Cl)cc1S(=O)(=O)N1CCN(c2ccccc2)CC1,i
C=CCn1c(Cc2ccc(OC)cc2)nnc1SCC(=O)Nc1ccc([N+](=O)[O-])cc1,3.5%
COc1cc(CNc2ccc(O)cc2)cc(Br)c1OCc1ccc(Cl)cc1Cl,i
Cn1c(CCCOc2ccc(Cl)cc2Cl)nnc1SCC(=O)Nc1nccs1,i
CC(Oc1ccccc1)C(=O)Nc1cc(Cl)ccc1O (centres undefined),2.7%
COc1ccc(Nc2cc(-n3nc(C)cc3C)nc(C)n2)cc1,0.3%
CSc1ccccc1NC(=S)Nc1ccccc1C(F)(F)F,i
CCOc1ccc(CSc2nnc(C)n2N)cc1,i
CCS(=O)(=O)c1c(S(=O)(=O)CC)c2cc(C(C)(C)C)ccn2c1C(=O)c1ccc(OC)cc1,i
O=C(Nc1ccc(Cl)cc1C(F)(F)F)c1ccc(-c2ccc(Cl)cc2)o1,i
COc1ccc2nc(C)c3cc(C)oc3c2c1,1.82µg/mL*
CCC(=O)Nc1ccc(-c2nc3ccc(OC(=O)CC)cc3c(=O)o2)cc1,i
COc1ccccc1N1CCN(C2CC(=O)N(c3ccc(C)cc3)C2=O)CC1 (centres undefined),i
COc1ccc(-c2csc(Nc3cccc(C)n3)n2)cc1OC,i
COC(=O)c1ccccc1NC(=O)c1cc(C)on1,i
COc1ccc(-c2csc(NC(=O)CSc3nnc4ccccn34)n2)cc1,i

# The results go on.
SMILES,Mtb H37Rv
C=CCc1cc(OC)ccc1OCCNCCN,i
COc1ccc(C(=O)NCCc2cccs2)cc1OC,i
Cc1ccc(SCCCCN2C(=O)NC(C)(C)C2=O)cc1,2.5%
Cc1nn2c(=O)nc3sc4c(c3c2[nH]c1=O)CC(C)(C)OC4,i
CC(C)c1cccc(C(C)C)c1NC(=O)c1ccncc1,0.8%
CCCn1nnc(NC(=O)COc2ccc(C(C)CC)cc2)n1 (centres undefined),?
Cc1ccccc1Oc1ccc(S(=O)(=O)N2CCCC2)cc1,i
CNc1nc(NC)nc(-n2c(C(F)(F)F)nc3ccccc32)n1,?
Cc1ccc(C)c(S(=O)(=O)Nc2ccc(C(=O)N3CC(C)OC(C)C3)cc2)c1 (centres undefined),i
COc1ccc(C2CC(c3ccc(F)cc3)=NN2c2cc(Cl)ccc2Cl)c(OC)c1 (centres undefined),13.1%
COc1ccc(F)cc1S(=O)(=O)N1CCN(c2c(C)cc(C)cc2C)CC1,0.2%
CC(CC(=O)Nc1cccnc1)c1ccccc1 (centres undefined),i
O=C(Nc1ccc2c(c1)Cc1ccccc1-2)c1c(F)c(F)c(F)c(F)c1F,i
Cn1cnnc1SCC(=O)n1c2c(c3ccccc31)CCCC2,i
Cc1cccc(NC(=O)NNC(=O)c2cc3ccccc3cc2O)c1C,i
CCc1cccc(CC)c1NC(=O)c1ccc2c(c1)OCO2,i
COc1cc(C2c3c(oc4ccccc4c3=O)C(=O)N2c2nnc(C(C)C)s2)cc(Br)c1O (centres undefined),i
CS(=O)(=O)N1CCN(C(=S)Nc2ccc3c(c2)OCO3)CC1,i
O=C(c1ccccc1)c1cc(Cl)ccc1NC(=O)C1CCCO1 (centres undefined),i
COc1ccc(C(=O)C23CC4CC(C2)CC(C(=O)c2ccc(OC)cc2)(C4)C3)cc1,i

# Two of the compounds above, as labelled records.
COc1ccc(F)cc1S(=O)(=O)N1CCN(c2c(C)cc(C)cc2C)CC1
  Mtb H37Rv = 0.2%
CC(CC(=O)Nc1cccnc1)c1ccccc1 (centres undefined)
  Mtb H37Rv = i

# Further entries
SMILES,Mtb H37Rv
O=C(O)C1C2CCC(C2)C1C(=O)Nc1nc2c(s1)CCCC2 (centres undefined),i
CCOC(=O)c1cnc2c(C)cc(Cl)cc2c1NCC(C)O (centres undefined),1.1%
CCOC(=O)c1ccc(NC(=O)CNC(=O)C2CCCCC2)cc1,i
CCOC(=O)c1cc(Cc2ccccc2)sc1NC(=S)Nc1ccc(OCC)cc1[N+](=O)[O-],i
O=C1c2cc3oc4ccccc4c4ccccc4oc3cc2C(=O)N1CC1CCCO1 (centres undefined),60.5%
Fc1ccc(CCNC(=S)NC2CC2)cc1,i
COc1ccc(N2C(=O)CC(N3CCC(C#N)(c4ccccc4)CC3)C2=O)cc1 (centres undefined),i
Cc1ccccc1C(=O)Nc1sc(Cc2ccccc2)c(C)c1C(N)=O,?
CCc1ccc(NC(=O)CSc2nnc(-c3ccc(Br)cc3)o2)cc1,?
O=S(=O)(N1CCNCC1)N1CCOCC1,i
CCS(=O)(=O)N1CCN(Cc2cccnc2)CC1,i
CCOC(=O)c1ccc(NC(=O)c2c(Cl)cnn2C)cc1,i
COc1ccc(S(=O)(=O)N(CC(=O)N2CCCCC2)c2ccc(Cl)cc2)cc1,i
CCc1cc(=O)oc2c(OC)c(OC)ccc12,i
Cc1cc(OCC(=O)N2CCN(c3ccccc3)CC2)cc(C)c1Cl,5.9%
O=C(Nc1ccc(Cl)cc1Cl)c1cnn2c(C(F)(F)F)cc(-c3ccco3)nc12,i
O=C(c1ccc(Cl)c(Cl)c1)N1CCN(c2ccccc2[N+](=O)[O-])CC1,5.3%
COc1cc(/C=c2\sc3nc4ccccc4n3c2=O)ccc1OCc1ccc(F)cc1,2.5%
CCOc1ccc(S(=O)(=O)N(CC(=O)Nc2ccc(F)cc2F)c2ccccc2)cc1,i
COc1ccc(Cl)cc1NC(=S)NCc1ccccn1,i
COc1ccc(C(=O)CSc2nnc(C(NC(=O)c3ccccc3Cl)C(C)C)n2C)cc1 (centres undefined),i
CCCCNCCOCCOc1ccccc1F,i
O=S(=O)(NCCCn1ccnc1)c1ccccc1,i
O=c1c2ccccc2[nH]c(=S)n1CCCN1CCc2ccccc2C1,i
CCOC(=O)C(=O)Nc1ccc(S(=O)(=O)N(C)Cc2ccccc2)cc1,i
CCOC(=O)N1CCN(C(=O)c2ccccc2Oc2ccccc2)CC1,i
Cc1ccc(N(CC(=O)NC2CCCCCC2)S(=O)(=O)c2ccc(C)cc2)cc1,i
CC1Cn2c(nnc2-c2cccs2)S1 (centres undefined),i
CCC(=O)Nc1cc(Cl)ccc1N1CCN(C(=O)CC)CC1,i
COc1ccc(C2C(C(C)=O)=C(O)C(=O)N2CCN(C)C)c(OC)c1 (centres undefined),i
O=C(Nc1ccccc1[N+](=O)[O-])c1ccc(Br)s1,i
COc1cc(/C=C(/C#N)c2nc3ccccc3[nH]2)cc(Cl)c1OCc1ccccc1C#N,i
COc1cc(C(=O)N(C)Cc2ccccc2)cc(OC)c1OC,i
O=C(Nc1ccccc1Cl)N1CCN(c2ncccn2)CC1,i
S=C(NCC1CCCO1)NC1CCCC1 (centres undefined),i
CCCC12CN3CC(CCC)(CN(C1)C(=O)c1ccccc1C3=O)C2=O,2.2%
COc1cc2c(cc1OC)CN(C(=O)c1ccccc1Cl)CC2,i
CN(c1ccc(C(=O)Nc2cc(Cl)cc(Cl)c2)cc1)S(C)(=O)=O,i
CCOC(=O)c1ccc(NC(=O)CN(c2cccc3ccccc23)S(C)(=O)=O)cc1,5.5%

# This is a subset, so the mix of outcomes need not match the whole.
